Rango-impB inh: Rango-importin beta binding inhibition | Q14974 | Rango CFP/YFP FRET sensor + importin beta, 45 min | Potency, µM (top dose mostly 92.2 µM), without a hit: at the highest dose inhibition of complex formation | 0.031% of 340,000 active; active = rising FRET ratio curve, often small or poorly fitted; inconclusive = mostly compound fluorescence or quenching in the first reads; inactive = flat curves in all reads;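 further: potency means the concentration at half of the fitted maximal effect; 0% = DMSO wells and 100% = buffer wells lacking importin beta; nearly all actives have a fitted effect of over 15% in size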
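FRET biosensor Rango (snurportin 1 IBB between N-terminal EYFP and C-terminal Cerulean), 50 nM in PBS/1 mM DTT/0.02% Tween-20/0.1% BSA, preincubated 5 min RT with compound; 0.125 microM importin beta added, 45 min RT, CFP/YFP FRET ratio read.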
Rango dissoc inh: inhibitors of RanGTP-induced Rango-importin beta complex dissociation. O95149+P62826. Biochemical FRET Rango-importin beta, RanGTP-induced dissociation. Potency, µM (doses to about 46.1 µM), for inactives: at the highest dose activity change, negative = inhibition. 0.071% of 340,000 active; active means falling FRET ratio curve, often poorly fitted, with flat reads before Ran was added; inconclusive means other falling curves, or compound fluorescence or quenching; inactive means flat or rising ratio curve;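 further: potency means the concentration at half of the fitted maximal effect; % of control where 0% means no effect; nearly all actives have a fitted effect of over 45% in size; -100% = wells without RanGTP and RCC1; the record marks most hits as doubtful in a second field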
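Two FRET readings bracket the reaction: one 5 min after compound meets Rango–importin beta, another 45 min after RanGTP-RCC1 (0.6 uM Ran, 0.2 uM RCC1, 2 mM GTP) is added. Only the second defines inhibition.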
miR-21 reporter: raises the signal of a miR-21 reporter. HeLa miR-21 FLuc reporter, luciferase, 48 h. Potency, µM (doses to about 38.3 µM), for inactives: at the top dose reporter change, positive = more light. 340,000 tested, under 10 active; active = well fitted rising curve with a large enough effect; inconclusive = small, poorly fitted or top-dose-only effect; inactive = no such curve, though single readings can be large or run the other way;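 further: % of control where 0% means no effect; miR-21 action dims this reporter so a rising signal means less miR-21 action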
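Using DMEM plus 10% FBS, HeLa miR-21-FLuc cells are incubated with test compounds (final up to about 40uM) for 48 hours; firefly luciferase signal is then imaged following reagent-mediated lysis.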
GLA inh pH 4.5: inhibitors of human alpha-galactosidase A at pH 4.5; 230,000 tested, under 10 active; purified enzyme, 4-MU-alpha-Gal fluorescence, pH 4.5; P06280; activity change, negative = inhibition, % at 105 µM; inconclusive = small, poorly fitted or top-dose-only inhibition, or a rising curve; inactive = flat fitted curve, though single readings scatter; no compound was filed as active;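 further: 0% = full activity with enzyme and -100% = basal without enzyme; dose as in the result columns while the protocol names 77 µM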
Target sequence (P06280 whole entry, looked up): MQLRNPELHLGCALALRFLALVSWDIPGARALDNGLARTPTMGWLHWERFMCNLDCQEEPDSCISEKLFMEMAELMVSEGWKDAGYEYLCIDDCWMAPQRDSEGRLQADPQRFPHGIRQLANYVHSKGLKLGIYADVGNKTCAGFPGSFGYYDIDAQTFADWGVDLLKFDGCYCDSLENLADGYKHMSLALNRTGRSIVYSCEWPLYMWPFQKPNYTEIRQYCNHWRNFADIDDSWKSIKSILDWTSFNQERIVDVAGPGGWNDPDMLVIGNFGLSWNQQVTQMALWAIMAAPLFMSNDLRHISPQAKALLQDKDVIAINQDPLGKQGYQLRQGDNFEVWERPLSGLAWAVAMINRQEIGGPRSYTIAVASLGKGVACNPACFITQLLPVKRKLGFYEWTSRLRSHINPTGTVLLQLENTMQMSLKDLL
* hit, by the source's call; ? = inconclusive; . = not tested or not shown. The list is partial. The share of hits here may be higher or lower than overall.

canonical_smiles,Rango-impB inh,Rango dissoc inh,miR-21 reporter,GLA inh pH 4.5
COc1cc(/C=N/Nc2ccc(F)cc2F)cc(OC)c1O,7.5%,8%,-12%,-8
CC(=O)NCCn1c(SCc2cccc([N+](=O)[O-])c2)nc2ccccc2c1=O,0.5%,-2%,-1%,0
Cc1nn(C)c(C)c1CN(C(=O)C1CCC(=O)N(C2CCCCCC2)C1)C(C)C (centres undefined),2.6%,-10%,-25%,.
O=C(NCCNCc1ccc(F)cc1)c1ccco1,0.0%,-11%,-4%,0
CCCn1c(C(O)c2ccc(OC)c(OC)c2)nc2ccccc21 (centres undefined),-0.7%,7%,14%,.
CC(C)n1c(C(F)(F)F)nc2cc(C(=O)N3CCC(O)CC3)ccc21,3.2%,0%,5%,3
CC(=O)c1cc(C)ccc1OC(=O)c1cccnc1,2.6%,1%,-2%,-3
COCCn1c(=S)[nH]c2cc(C(=O)N3CCN(Cc4ccc5c(c4)OCO5)CC3)ccc2c1=O,-0.2%,-8%,4%,-7
COC(=O)/C(C#N)=C/c1occc1C,0.3%,19%,-5%,3
O=C(Cn1nc(C(F)(F)F)c2c1CCC2)NCc1ccc(Cl)cc1,?,2%,-5%,-9
CCCCNC(=O)COc1ccccc1C(=O)c1cc(C#N)c(=O)n(CCOC)c1,?,-28%,-6%,4
CC(=O)c1c(C)nc2ccc([N+](=O)[O-])cc2c1-c1ccccc1,6.2%,1%,13%,.
O=C(NCC1OCCCN1S(=O)(=O)c1ccc(F)cc1)C(=O)NC1CCCC1 (centres undefined),2.2%,2%,1%,.
COc1ccccc1CNC(=O)c1n[nH]c2ccccc12,-5.7%,2%,-38%,4
Cc1cc(C(=O)NCCc2ccc(S(N)(=O)=O)cc2)c(C)o1,7.6%,5%,-1%,.
O=C(COC(=O)[C@@H]1CC(O)CN1S(=O)(=O)c1ccccc1[N+](=O)[O-])Nc1ccc2ccccc2c1 (some centres undefined),1.7%,0%,-19%,-3
COc1cc2c(cc1OC)CN(c1ncccc1[N+](=O)[O-])CC2,-3.2%,-12%,-78%,.
O=C1c2ccccc2N[C@@H]2C=CC[C@@H]2N1O,-2.8%,16%,.,.
COc1cc2c(cc1OC)C(C)N(C(=O)c1cc3c(C)cc(C)cc3[nH]1)CC2 (centres undefined),-1.9%,13%,22%,.
CC1=Nc2ccccc2N=C(NC(=O)CSC(=S)N2CCCCC2)C1c1ccccc1 (centres undefined),2.0%,16%,6%,-8
Cn1c(=O)cc(OCCCC(=O)NCc2ccc3c(c2)OCO3)c2ccccc21,5.2%,41%,-13%,0
Cc1occc1-c1nnc(SCC(=O)c2cc3ccccc3oc2=O)o1,?,?,-9%,-4
C[C@@H]1CN([C@@H](C)CO)C(=O)c2cccc(NC(=O)c3nc4ccccc4s3)c2O[C@@H]1CN(C)CC1CC1,-1.0%,6%,.,.
CCOc1ccc(C(=O)NCCNC(=O)c2ccc(OCC)cc2)cc1,0.2%,10%,1%,.
O=C(N/C(=C\c1ccco1)C(=O)N1CCCC1)c1cccs1,-2.2%,15%,-4%,1
O=c1ccn(CCCBr)c(=O)[nH]1,-0.6%,-6%,0%,7
NC(=O)c1nn(CC(=O)Nc2ccc3c(c2)OCO3)cc1[N+](=O)[O-],4.2%,1%,0%,1
O=C(CCc1nc2ccccc2c(=O)[nH]1)OCc1ccccc1F,-2.1%,-1%,-5%,9
NS(=O)(=O)c1ccc(NC(=O)C2COc3ccccc3O2)cc1 (centres undefined),-0.1%,13%,-16%,8
COc1cccc(C2NC(=O)NC(O)(C(F)(F)F)C2C(=O)c2cccnc2)c1OC (centres undefined),-2.2%,-2%,-2%,1
CCc1nnc(NC(=O)C2Cc3ccccc3CN2S(=O)(=O)c2cccs2)s1 (centres undefined),3.0%,3%,-44%,4
CC(C)n1nc(C(=O)NCCc2ccc(S(N)(=O)=O)cc2)c2ccccc2c1=O,-2.6%,7%,-14%,4
O=c1cc(-c2ccco2)oc2ccc(Cl)cc12,-7.9%,2%,-17%,2
COC(=O)CN(c1ccccc1C)S(C)(=O)=O,2.0%,-15%,0%,2
CC(C)NC(=S)Nc1ccc2[nH]c(=O)[nH]c2c1,?,?,-3%,1
CC(C)(C)c1ccc(/C=N/n2cnnc2)cc1,-0.8%,-16%,6%,5
O=C(Cc1c(C(=O)O)[nH]c2ccccc12)NC1CCCC1,2.0%,2%,-2%,-12
COc1cccc(NC(=O)NCc2c(-c3ccccc3)noc2C)c1,0.4%,-14%,-11%,-9
NC(=Nc1ccc(Cl)cc1)c1ccccc1,-5.2%,-19%,-33%,-6
N#Cc1cc(C(=O)Cc2ccccc2)c[nH]1,-0.2%,3%,-13%,4

Quoted from the listing (6 entries):
canonical_smiles,Rango-impB inh,Rango dissoc inh,miR-21 reporter,GLA inh pH 4.5
CCc1nnc(NC(=O)C2Cc3ccccc3CN2S(=O)(=O)c2cccs2)s1 (centres undefined),3.0%,3%,-44%,4
CC(C)n1nc(C(=O)NCCc2ccc(S(N)(=O)=O)cc2)c2ccccc2c1=O,-2.6%,7%,-14%,4
O=c1cc(-c2ccco2)oc2ccc(Cl)cc12,-7.9%,2%,-17%,2
COC(=O)CN(c1ccccc1C)S(C)(=O)=O,2.0%,-15%,0%,2
CC(C)NC(=S)Nc1ccc2[nH]c(=O)[nH]c2c1,?,?,-3%,1
CC(C)(C)c1ccc(/C=N/n2cnnc2)cc1,-0.8%,-16%,6%,5

Following part.
canonical_smiles,Rango-impB inh,Rango dissoc inh,miR-21 reporter,GLA inh pH 4.5
C=CCNC(=O)c1ccc2nc(-c3ccccc3)c(-c3ccccc3)nc2c1,2.4%,1%,14%,18
CC(C)c1nc2sc3ccccc3c(=O)c2c(=O)n1Cc1ccccc1,-3.3%,51%,-2%,-12
Cc1ccc(C(=O)N/N=C2\CCSC2)cc1[N+](=O)[O-],-0.3%,1%,14%,6
Cc1ccccc1C(=O)N1CCc2cc(-c3nc(NC(=O)Cc4ccc5c(c4)OCO5)sc3C)ccc21,-2.5%,10%,6%,6
COc1cc(OC)c(-c2nn3c(-c4ccncc4)nnc3s2)cc1OC,.,.,-19%,0
Cc1[nH]c2ccccc2c1C(=O)CN1CCC(C(N)=O)(N2CCCCC2)CC1,-4.9%,-9%,0%,6
O=C(COc1ccc(Cl)cc1)NCCC1=CCCCC1,0.7%,-2%,-11%,2
CC(O)[C@H]1CNC(=O)C(=O)N1CCCCC1CCCCC1 (some centres undefined),1.1%,7%,-9%,7
Oc1ccc(-c2csc(NCc3ccco3)n2)cc1,-1.0%,0%,-60%,2
O=C(/C=C/c1ccccc1)c1ccoc1,0.2%,?,0%,-3
COc1cccc(NC(=O)c2ccc(S(=O)(=O)N3CCCC3)cc2)c1,-5.3%,11%,0%,.
CCCc1c(C(=O)N/N=C/c2ccco2)nnn1-c1nonc1N,0.4%,11%,-4%,.
CCn1nc(C)c(/C=N/NC(=O)c2ccc3c(c2)c(C)c(C)n3Cc2ccccc2)c1C,?,21%,-11%,-2
CC(=O)c1ccc(NC(=O)CSc2ccc3nnc(-c4ccccn4)n3n2)cc1,-3.9%,15%,-2%,.
CC1=NN(c2ccccc2)C(=O)C1C(=O)c1ccc(Cl)cc1 (centres undefined),-0.2%,15%,27%,9
COc1cc(C(=O)N2C(=O)CCC2=O)cc(OC)c1OC,-0.6%,-6%,1%,.
Cn1c(CCC(=O)Nc2ccccc2F)nnc1SCC(=O)Nc1ccccc1Cl,1.9%,12%,-1%,-8
CC(Sc1nc(N)cc(=O)[nH]1)C(=O)NNC(=O)c1cccc(Cl)c1 (centres undefined),-0.4%,-12%,.,.
COc1cccc(-c2cc(C(F)(F)F)nc(-n3cncn3)n2)c1,1.2%,-6%,-8%,-4
Cc1csc(NC(=O)Cn2nc(C)c([N+](=O)[O-])c2C)n1,3.9%,-3%,-1%,6
O=S(=O)(/N=C(\c1ccccc1)N1CCOCC1)c1ccc(Cl)cc1,-1.5%,8%,-13%,-8
COc1ccccc1-n1c(=O)c2c3c(sc2n2c(SC)nnc12)CCC3,0.1%,7%,.,.
COc1ccccc1NC(=O)CN(c1ccccc1OC)S(=O)(=O)c1ccccc1,-3.4%,0%,8%,.
CCC(C(=O)NCCC1=CCCCC1)c1ccccc1 (centres undefined),0.5%,-16%,-8%,15
COc1ccc2[nH]c3c(c2c1)CCN1C(=O)N([C@@H](C)C(=O)NCc2ccco2)C(=O)[C@]31C,-1.0%,28%,2%,.
C/C(=N\NC(=S)NC(C)C)c1ccccc1,-1.3%,40%,-12%,8
CNC(=S)NNC(=O)COc1ccccc1C,-4.5%,20%,-7%,-4
O=C1NC(=S)NC1=Cc1ccc(Cl)cc1Cl,?,?,.,.
Cc1cccc(NC(=O)C2CCCN(S(=O)(=O)c3cccs3)C2)c1C (centres undefined),-1.8%,-18%,6%,.
Cc1ccc(C(=O)O/N=C(\N)Cc2cccs2)cc1[N+](=O)[O-],-1.6%,2%,-14%,.
CC(NCCN(C)C)C1CCC2C3CCc4cc(O)ccc4C3CCC12C (centres undefined),-0.3%,-10%,.,.
CCOC(=O)N1CCN(c2nc(C)c3c(n2)CCCC3=O)CC1,-1.6%,-3%,-23%,3
COC(=O)NNC(=O)c1cccc(C)c1,-0.1%,5%,-3%,7
O=C(NNc1nc2ccccc2s1)C1CC1,-0.7%,-6%,-9%,-1
C=CCc1ccc(OCCCCOc2ccc(C(=O)O)cc2)c(OC)c1,2.7%,11%,1%,-2
Cc1ccc(Cn2c(C)c3cnn(CC(=O)NCCN4CCOCC4)c(=O)c3c2C)cc1,1.4%,0%,.,.
Cc1nnc2sc(-c3ccc(N(C)C)cc3)nn2c1=O,-0.2%,25%,-36%,.
Cc1c(C)n(CCCN(C)C)c2ncnc(NC3CCCCC3)c12,0.7%,0%,-18%,.
COc1ccc(C(O)(C(=O)NNc2ccc(C)cc2)c2cccs2)cc1 (centres undefined),-1.3%,19%,0%,1
Cc1occc1C(=O)N1CCCC(Nc2ccc(F)c(F)c2)C1 (centres undefined),-0.9%,15%,0%,.
COc1cc(C(=O)N[C@H](C(=O)Nc2nnc(C3CC3)s2)C(C)C)cc(OC)c1OC,-0.4%,-2%,0%,2
CCC(=O)N1CC2(CC(c3cccc([N+](=O)[O-])c3)=NO2)C[C@H]1C(=O)NCC(N)=O (some centres undefined),1.2%,-1%,-3%,-4
C=CCn1c(SCc2ccc(C#N)cc2)nnc1-c1ccccc1,-4.1%,-7%,-3%,-13
O=C1CCCCC1Nc1ccc(Cl)cc1 (centres undefined),6.1%,13%,.,.
O=C(Cc1csc(Nc2nc(=S)[nH]c3ccccc23)n1)NCc1ccc(Cl)cc1,0.4%,1%,-2%,-2
O=C(CNC1=NCCC1)c1ccc2c(c1)OCCO2,-1.1%,7%,8%,4
O=C(N/N=C/c1ccco1)c1cc(-c2ccc(Cl)s2)[nH]n1,0.5%,0%,-4%,-3
COc1cc(C)cc(C(=O)C=Cc2ccccc2)c1O,1.9%,-5%,.,.
CCCC(=O)N(Cc1cc(=O)[nH]c2ccccc12)c1ccccc1C,1.9%,0%,-1%,.
O=[N+]([O-])c1ccccc1S(=O)(=O)NCCSc1ccccc1,6.7%,?,0%,.
O=C(CN1CC[C@@]2(O)CCCC[C@H]2[C@@H]1c1ccc(F)cc1)NCc1ccco1,?,-5%,4%,-2
CCOc1ccc(NC(=S)N(CCOC)C2CCN(C(C)C)CC2)cc1,2.4%,13%,-3%,.
Cc1ccc(C)c(-n2nnnc2SCC(=O)Nc2c(C)n(C)n(-c3ccccc3)c2=O)c1,-2.1%,41%,5%,5
